Assay outcomes deposited in PubChem BioAssay by ICCB-Longwood Screening Facility, Harvard Medical School.
LANA-nucl inh: LANA-nucleosome interaction inhibition; z-score (concentration not given with the values); AID 720717; 51,000 compounds, 0.3% hits; FITC-LANA1-23 / chicken nucleosome fluorescence polarization; hits give low values;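 active = both repeat wells score below -2 in polarization z-score versus plate sample wells, excluding overly bright wells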;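 also: 100 nL library stock added to about 30 µL; numbers are from one replicate; some results filed as inactive read as strong as hits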
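test system = FITC-LANA peptide and chicken nucleosomes | amount = 240 nM purified chicken nucleosomes (480 nM peptide binding sites), final | reagent = 50 nM FITC-LANA1-23 probe | medium = TEN-BT buffer, pH 7.5 | doses = single compound addition by pin transfer, 100 nL per well | timing = 10–45 min, room temperature | detection = fluorescence polarization | repeats = duplicate plates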
Ab BasE inh: inhibitors of Acinetobacter baumannii siderophore enzyme BasE; purified BasE, fluorescence polarization binding displacement; 84,000 compounds, 0.1% hits; inhibition, % (test concentration not listed); AID 485350;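 active = both replicates above 25% with normal brightness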;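 also: 0% = negative plate control signal and 100% = positive plate control signal; stock transfer was 100 nL into about 30 µL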
* marks the source's active call; other numbers are inactive results; . = no result given. These rows are one share of the data, so the mix of outcomes need not match the whole.

Structure | Ab BasE inh | LANA-nucl inh
CN(Cc1ccccc1)C(=O)c1cnc2n(c1=O)CCS2 | 0.9 | -0.457
Cc1ccc(S(=O)(=O)Nc2ccc(OC3OC(CO)C(O)C(O)C3O)cc2)cc1 (stereo not given) | -1.4 | 0.204
O=C(c1ccc(Cl)cc1)c1coc2c1cc(O)c1ccccc12 | -1.8 | .
Cc1onc(-c2c(Cl)cccc2Cl)c1N(C)C(=O)N1CCCCC1 | 0.7 | .
COC(=O)c1sc(N)c(C(=O)OC)c1CSc1nnc(Cc2csc(C)n2)o1 | -1.1 | .
CNS(=O)(=O)c1ccc2c(S(=O)(=O)NC)c(OC)ccc2c1 | 1.9 | 0.12
COc1ccc(S(=O)(=O)N(C)c2ccnc(C(=O)N3CCC4(CC3)OCCO4)c2)cc1 | -1.5 | -0.391
C/C=C/c1c(F)c(F)c(Oc2ccc(C(=O)O)cc2)c(F)c1F | 3.2 | -0.571
O=C(Cn1c(=O)oc2cc(S(=O)(=O)NC3CCCC3)ccc21)NCc1ccc(F)cc1 | -0.4 | -0.923
O=C(Nc1ccc(-c2nc3ccccc3s2)c(O)c1)c1ccccc1 | 1.2 | .
O=C1NC2=C(CCc3ccccc32)C(c2ccccc2)N1 (stereo not given) | -0.6 | .
O=C(COc1cccc2ccccc12)N1CCN(S(=O)(=O)c2ccc3c(c2)OCCO3)CC1 | 0.5 | .
OC(COC1CCCCC1)Cn1cnc2ccccc21 (stereo not given) | 1.0 | 0.145
O=C(N/C(=C/c1ccccc1)S(=O)(=O)c1ccccc1)c1ccccc1 | 0.7 | .
COc1cc2c(cc1OC)C(SC)=NC(C)(C)C2 | -0.9 | 0.598
N#Cc1oc2ccccc2c1NC(=O)COC(=O)c1c2c(nc3ccccc13)CCCCC2 | 2.5 | .
O=C(c1ccc(Cl)cc1)N1CCCn2c1nc1ccccc12 | -2.9 | 0.0655
Cc1nc2ccccc2n1C(C)C(=O)O (stereo not given) | 0.2 | -0.432
Cc1ccc2c(c1)c(N=NC(=O)CCc1ccccc1)c(O)n2C(C)C | 5.6 | .
COc1ccc(CCNC(=O)CSc2nncn3c2cc2oc(C)cc23)cc1OC | -1.2 | 1.38
Cn1nnc(C(O)CN2CCOCC2)n1 (stereo not given) | 1.2 | 0.005
NS(=O)(=O)c1ccc(N=P(N2CCOCC2)(N2CCOCC2)C23CC4CC(CC(C4)C2)C3)cc1 | 5.2 | .
CC(C)c1ccccc1NC(=O)CN1C(=O)CCC1=O | 1.8 | .
CCN(CC)S(=O)(=O)c1cccc(-c2nnc(SCC(=O)Nc3cc(C)c(Cl)cc3OC)o2)c1 | 0.2 | .
CCCn1c(=O)c2[nH]cnc2n(-c2ccccc2C)c1=O | -1.5 | .
Fc1ccc2nc3n(c2c1F)CCCCCC3 | -2.0 | .
CC(=O)Nc1ccccc1N1CCCCC1 | 1.3 | -0.594
O=C(N1CCC(O)(c2cccnc2)CC1)C12CC3CC(CC(C3)C1)C2 | -3.3 | 1.77
c1coc(C2OCC(CN3CCCCC3)O2)c1 (stereo not given) | 0.9 | -0.442
COc1ccc(-n2nc(C(=O)N3CCN(C)CC3)nc2-c2ccccc2)cc1 | 13.1 | -0.467
c1ccc(OCc2nnc3n2N=C(c2ccccc2)CS3)cc1 | -2.2 | -1.68
Cc1c(-c2ccnn2C(=O)c2ccc(C(F)(F)F)cc2)sc2ccccc12 | 2.9 | .
Cc1nnc2c(NCCN3CCN(c4cccc(Cl)c4)CC3)nc3ccccc3n12 | 3.3 | -0.118
CCOC(=O)c1ccc(-c2ccc(C=C(C#N)C#N)o2)cc1 | 24.6 | -0.529
CCOC(=O)c1cc(C#N)c(SC)nc1-c1ccccc1 | -1.4 | -0.974
CCOC(=O)CN(c1ccc(C)cc1)C1SC(=O)N(Cc2cccc(C(=O)O)c2)C1=O (stereo not given) | 3.3 | -0.036
Cc1sc2nc(CN3CCC(C)CC3)[nH]c(=O)c2c1C | 11.1 | .
CCC(C(=O)NC1CCCC1)N(Cc1ccc2c(c1)OCO2)C(=O)c1snc(C(N)=O)c1N (stereo not given) | 1.7 | 0.288
Cc1onc(C(=O)NN)c1-c1csc(-c2ccccc2)n1 | 2.0 | -1.17
CC(C)Oc1ccc(C(=O)NCC(=O)N2CCN(S(=O)(=O)/C=C/c3ccccc3)CC2)cc1 | 2.1 | .
CNc1sc(C(=O)c2ccc(OC)c(OC)c2)c(N)c1C#N | -1.0 | -0.363
C1CCC(CNCC2CCCO2)CC1 (stereo not given) | 1.7 | 0.608
CN(C)c1ncnc2c1cnn2C | 0.7 | 0.0925
CSc1nc2ccccc2n1CC(=O)Nc1c(C)cccc1C | 1.2 | 0.457
CCSc1nnc(CNC(=O)C23CC4CC(CC(C4)C2)C3)n1CC | 1.6 | -0.212
Cc1ccc(N2CC(NC(=O)OCCN(C)C)CC2=O)cc1 (stereo not given) | 1.1 | -0.786
COc1ccc(CCN2CC(=O)N3CCCC(C4=CC(=O)C=CC4=O)=C3C2=O)cc1OC | 3.5 | 0.0595
Cc1nc2cc(C(=O)c3ccccc3)ccc2[nH]c1=O | -3.3 | -0.993
Cc1ccc2o/c(=N\O)c(C(N)=O)cc2c1 | 2.2 | -0.0975
O=C(OCc1cc(=O)oc2cc(O)ccc12)c1ccc(C(F)(F)F)cc1 | 0.0 | .
CN(C)/C=C1/C(=O)N(c2ccccc2)N=C1C(F)(F)F | 1.3 | 0.056
CCN(CC)Cn1c(=S)sc2ccccc21 | 6.4 | -0.137
O=S(=O)(/C=C/c1ccccc1)c1ccc(F)cc1F | 3.7 | -0.661
O=C(Nc1ccccc1N1CCCCC1)c1ccc2ncccc2c1 | -1.6 | 0.046
NC(=O)C1CCN(Cn2c(SCc3ccccc3)nc3ccccc32)CC1 | -1.0 | .
CCOc1ccc2ccccc2c1C=C1C(=O)N(C)C(=S)N(C)C1=O | -1.1 | .
O=C(c1ccccc1F)n1c2c(c3ccccc31)CCCC2 | -3.3 | .
CCCn1c(C(O)(c2c(C)nn(CCO)c2N)C(F)(F)F)nc2ccccc21 (stereo not given) | 0.2 | .
CCOC(=O)c1oc2ccc(Br)cc2c1CSc1nc2ccccc2c(=O)[nH]1 | 1.1 | .
CCCCN(C)C(=O)Cn1c(=O)oc2ccccc21 | -0.5 | -0.195

(next part)
Structure | Ab BasE inh | LANA-nucl inh
CCc1c(O)nc(N)[nH]c1=O | 2.9 | -0.581
O=C(Nc1nc2nc(-c3ccccc3)cc(-c3ccccc3)n2n1)c1ccccc1 | 0.5 | .
O=C(CN1C(=O)c2ccccc2C1=O)Nc1ccc(F)cc1 | -0.4 | .
CC1CCCN(c2ccc(C(=O)NCc3ccccc3)cn2)C1 (stereo not given) | 0.4 | -0.799
O=C1OC2(CCCC2)OC(=O)C1=Cc1ccc(N2CCOCC2)o1 | -1.6 | 4.57
O=C(CSc1ccc(Cl)cc1)N1CCc2ccccc21 | 0.6 | .
Nc1ccc(Oc2ccc(C(=O)O)c(C(=O)O)c2)cc1 | 0.3 | 0.731
N#Cc1cnc(SCC(=O)N2CCCCC2)nc1N | -2.2 | 1.43
CCOC(=O)c1ccc2[nH]c(C)c(C)c2c1 | -4.5 | 0.506
O=C(CCCn1c(=S)[nH]c2ccccc2c1=O)N1CCc2ccccc21 | 0.1 | 0.766
COC(=O)C1=C(C)N(C(C)c2ccccc2)C(=O)C1 (stereo not given) | -1.2 | 2.74
Cc1cc(C(=O)N2C=CC(C(F)(F)F)=NCC2)nn1C | . | -1.18
CC(CCc1ccco1)Nc1nc(-c2ccccc2F)no1 (stereo not given) | 2.4 | -0.235
O=C1c2ccccc2C(=O)N1CSc1ncccn1 | 0.0 | -0.348
CC(C)c1cccc(NC(=O)CCc2n[nH]c(=O)[nH]c2=O)c1 | 0.4 | 1.12
CC(C)S(=O)(=O)c1csc(C(=O)NN)c1-n1cccc1 | 1.3 | 0.27
CC(C)(CS)C(=O)N1CCC[C@@H]1C(=O)O | -0.6 | -0.271
O=C1c2ccccc2C(=O)N1CCCc1nn2c(-c3cccnc3)nnc2s1 | 0.8 | -0.108
CCCCC1(CC)NC(=S)N(c2ccc(C)c(C)c2)N1 (stereo not given) | 2.6 | -0.881
CCCN(CCC)C(=O)Cn1c(=O)n(CCCCC(=O)NCc2ccc3c(c2)OCO3)c(=O)c2ccccc21 | 0.3 | 0.517

Profiles, quoted from the list.
Record of CCCCC1(CC)NC(=S)N(c2ccc(C)c(C)c2)N1 (stereo not given) = Ab BasE inh = 2.6; LANA-nucl inh = -0.881
Record of O=C(Nc1nc2nc(-c3ccccc3)cc(-c3ccccc3)n2n1)c1ccccc1 = Ab BasE inh = 0.5; LANA-nucl inh = .
Record of O=C1c2ccccc2C(=O)N1CSc1ncccn1 = Ab BasE inh = 0.0; LANA-nucl inh = -0.348

(further entries)
Structure | Ab BasE inh | LANA-nucl inh
Cc1nnsc1-c1onc(C)c1C(N)=O | 1.1 | .
Cc1c2cnn(CC(=O)Nc3ccc4c(c3)OCCO4)c(=O)c2c(C)n1Cc1ccc(F)cc1 | 0.6 | 1.4
NC1(C(=O)O)CCCC1 | -1.3 | 0.551
CCCN(Cc1nnc(-c2ccco2)o1)C(=O)/C=C/c1c(C)nn(C)c1C | -0.2 | .
O=C(Cn1c(-c2ccccc2)cc2ccccc21)NC1=NCCS1 | 0.0 | .
O=C(CN1CCSc2ccccc21)NC1CC1 | 1.4 | .
O=C(N/N=C/c1ccc(Cl)cc1)c1cc(=O)nc2sccn12 | -0.9 | -0.201
O=C(c1ccc(=O)[nH]n1)N1CCN(S(=O)(=O)c2ccc(Br)s2)CC1 | 2.5 | .
O=C(O)CS(=O)(=O)Cc1ccccc1 | 0.5 | -0.735
Cc1c(C(=O)c2ccncc2)c2ccccn2c1CCC#N | -9.9 | .
O=C(NC1CCCC1)c1[nH]nc2c1CCc1ccccc1-2 | -0.4 | 0.227
COc1ccc(C2C(C(=O)N3CCCC3)CC(=O)N2c2ccc(OC)cc2)cc1 (stereo not given) | -2.1 | 0.0655
O=C(OCC(=O)c1c[nH]c2ccccc12)C1=COCCO1 | -1.6 | .
N#CCn1c(COC(=O)c2ccc3c(c2)OCO3)nc2ccccc2c1=O | -3.7 | .
CC1CC(=O)Nc2ccccc2N1C(=O)CN1CCCCC1 (stereo not given) | 1.2 | -0.597
CCSc1nnc(NC(=O)c2oc3ccccc3c2COC)s1 | 0.8 | .
CC(C)(C)C1CCc2c(sc3nc(-c4ccccc4)cn23)C1 (stereo not given) | 2.5 | 0.0775
CC(c1ccccc1)n1c(SCC(=O)c2csc3ccccc23)n[nH]c1=O (stereo not given) | -0.6 | .
CCN(CC(=O)Nc1ccccc1OC)CC(=O)Nc1cccc2nsnc12 | -0.7 | .
CC(C)N(C(C)C)S(=O)(=O)c1ccc(Oc2ccc3c4c(c(=O)oc3c2)CCC4)nc1 | 1.0 | .

The last four records of the section above open the next one.
Structure | Ab BasE inh | LANA-nucl inh
CC(C)(C)C1CCc2c(sc3nc(-c4ccccc4)cn23)C1 (stereo not given) | 2.5 | 0.0775
CC(c1ccccc1)n1c(SCC(=O)c2csc3ccccc23)n[nH]c1=O (stereo not given) | -0.6 | .
CCN(CC(=O)Nc1ccccc1OC)CC(=O)Nc1cccc2nsnc12 | -0.7 | .
CC(C)N(C(C)C)S(=O)(=O)c1ccc(Oc2ccc3c4c(c(=O)oc3c2)CCC4)nc1 | 1.0 | .
COC(=O)c1ccc(COC(=O)Cn2c(C)csc2=O)cc1 | -3.4 | .
COc1ccc(C2CC(=O)N3CN(C(C)c4ccccc4)CSC3=C2C#N)cc1 (stereo not given) | 0.5 | 0.592
CCCn1c(=O)c2c(nc3n2CCCN3c2ccc(OCC)cc2)n(C)c1=O | -0.4 | -0.462
COc1cc(OC)c(NC(=O)Cn2ncc3c4ccccc4n(C)c3c2=O)cc1Cl | 1.0 | 1.17
O=C(/C=C/c1ccc(F)cc1)NC(=S)NCc1ccco1 | 3.6 | -0.145
COc1ccccc1NC(=O)C1=C(C)OCCS1 | . | 2.24
CC1=CC2=C(OC1N(C)C)c1cccc3cccc(c13)C2=O (stereo not given) | 7.8 | .
COc1ccc(CCN2C(=O)C3CC=C(C)CC3C2=O)cc1OC (stereo not given) | 0.7 | -0.408
Cc1ccc2[nH]c(C)cc(=S)c2c1 | 1.0 | 1.05
CN1CCN(NC(=O)CC(C)(C)C)CC1 | 4.4 | -1.43
Cc1ccc(CN2CCC(CNc3ncnc4onc(C(=O)O)c34)C2)cc1 (stereo not given) | -1.4 | -1.06
Cc1ccccc1NC(=S)N(CCCN1CCOCC1)Cc1cccnc1 | -0.4 | 1.4
CCc1noc(C)c1C(=O)NC(c1ccccc1)c1ccc(Cl)cc1 (stereo not given) | -1.6 | .
Cc1ccc(C)c(NC(=O)CSc2nnc(CNC(=O)c3ccco3)n2-c2ccc(F)cc2)c1 | -1.0 | -0.481
CC(C(=O)NC1=NCCS1)N1C(=O)c2ccccc2C1=O (stereo not given) | -0.9 | .
CCCN(CCC)C(C(=O)Nc1cccc(OC)c1)c1ccccc1 (stereo not given) | 1.2 | .
